Source: PubChem BioAssay
ClpP mod: qHTS Assay for Activators of ClpP. ATP-dependent Clp protease proteolytic subunit (Bacillus subtilis (strain 168)), P80244. Potency, µM (top dose mostly 57.5 µM), without a hit: at the highest dose activity change, negative = active. 340,000 tested, 1.9% active. AID 651965, 2013. purified B. subtilis ClpP, FRET peptide cleavage, 20 min; active = well fitted falling curve with a large enough effect; inconclusive = small, poorly fitted or top-dose-only effect; inactive = no such curve, though single readings can be large or run the other way; further: potency means the concentration at half of the fitted maximal effect; the source files actives as falling curves though it sought activators and does not explain the sign; nearly all actives have a fitted effect of over 65% in size; many hits overshoot -100%
Target sequence (P80244 whole entry, looked up): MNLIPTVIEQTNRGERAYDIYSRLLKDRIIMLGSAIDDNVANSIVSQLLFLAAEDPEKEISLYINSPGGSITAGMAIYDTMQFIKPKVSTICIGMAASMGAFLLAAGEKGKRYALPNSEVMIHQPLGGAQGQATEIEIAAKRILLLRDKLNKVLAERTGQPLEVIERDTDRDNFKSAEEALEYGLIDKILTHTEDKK
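ClpP 10 microg/mL final, pH 8 Tris/KCl buffer with BSA, glycerol, Tween-20; compound pinned in; FRET-FV substrate; RT 20 min; Ex320/Em430; ΔFRET vs ADEP 5.8 microM, DMSO, no enzyme.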
Menin MLL FP FL: qHTS Assay for Inhibitors Targeting the Menin-MLL Interaction in MLL Related Leukemias: Competition With Fluorescein Labeled MLL-derived Peptide; Fluorescence polarization, fluorescein-MLL peptide displacement from menin; FP activity change, % at 61.4 µM; 290,000 tested, under 10 active; AID 1766, 2009; inconclusive = falling polarisation curve, or a change in total fluorescence; inactive = total fluorescence flat and polarisation flat or rising; no compound was filed as active; the % refers to the polarisation; negative = inhibition;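 further: % of control where 0% means no effect; inhibitors lower the polarisation; unlabelled MLL peptide was the positive control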
TRPML1 blocker: qHTS for Inhibitors of the Human Mucolipin Transient Receptor Potential 1 (TRPML1) | 390,000 tested, 0.02% active | TRPML1-inducible cells, Ca2+ dye fluorescence, FDSS; stronger effect = lower value; inhibition of EC80 agonist-evoked calcium signal | Mucolipin-1 (Homo sapiens), Q9GZU1 | activity change, negative = inhibition, % (test concentration not listed) | AID 624415, 2012; in the data active means activity change below about -50%; inconclusive means about -30% to -50%; inactive means above about -30%;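 further: stimulus is agonist 54-4 at its EC80 concentration; on the % scale 0 is the no-effect control and ±100 the full control effect; compound concentration not given in the record; the text of the record puts the active cut at -80%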
Target sequence (Q9GZU1 whole entry, looked up): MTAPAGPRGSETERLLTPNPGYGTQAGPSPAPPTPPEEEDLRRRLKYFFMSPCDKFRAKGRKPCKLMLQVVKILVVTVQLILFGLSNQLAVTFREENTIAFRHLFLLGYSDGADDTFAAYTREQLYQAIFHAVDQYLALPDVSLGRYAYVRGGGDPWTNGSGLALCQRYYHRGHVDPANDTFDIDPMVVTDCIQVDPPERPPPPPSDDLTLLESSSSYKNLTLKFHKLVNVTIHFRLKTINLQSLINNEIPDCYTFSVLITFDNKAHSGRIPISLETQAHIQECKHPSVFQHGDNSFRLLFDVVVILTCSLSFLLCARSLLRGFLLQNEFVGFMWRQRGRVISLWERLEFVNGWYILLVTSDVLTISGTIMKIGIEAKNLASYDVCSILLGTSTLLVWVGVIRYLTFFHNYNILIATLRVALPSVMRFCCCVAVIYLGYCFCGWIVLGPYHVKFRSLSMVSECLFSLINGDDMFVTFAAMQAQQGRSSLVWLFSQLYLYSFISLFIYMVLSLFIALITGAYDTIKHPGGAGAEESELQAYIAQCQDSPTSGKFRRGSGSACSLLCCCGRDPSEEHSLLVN
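Tet-induced TRPML1-DL cells loaded with Ca8 no-wash calcium dye were read kinetically on FDSS. Compound addition was followed by EC80 agonist 54-4 (4 uM final); inhibition was read over 110 s.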
TRPV1 PAM: HTS Assay for Compounds that Act as Potentiators of the Vanilloid Receptor 1; Transient receptor potential cation channel subfamily V member 1 (Homo sapiens), Q8NER1; 320,000 tested, 0.02% active; TRPV1-expressing cells, Fluo-8 calcium influx, capsaicin EC20 potentiation; host cell line not named in the record; control for the full effect not named in the record; potentiation, % at 8.33 µM; active means potentiation above 80%; inconclusive means 30% to 80%; inactive means below 30%; further: 0% is about no effect
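TRPV1-expressing cells were cultured overnight at 35.5C and loaded with Fluo-8 calcium dye for 40 to 90 min at room temperature. After a 10 s baseline, compound was added and calcium influx was read kinetically for 3 min (ex 480/em 520 nm).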
Sfp PPTase inh: qHTS Assay for Inhibitors of Bacillus subtilis Sfp phosphopantetheinyl transferase (PPTase); 4'-phosphopantetheinyl transferase ffp (Bacillus subtilis), Q9F4F7; Biochemical Sfp PPTase activity, qHTS; Potency, µM, for inactives: max response, negative = inhibition, most hits filed as inhibitors; 310,000 tested, 3.5% active; AID 1490, 2009; active means well fitted inhibition curve with a large enough effect; inconclusive means small, poorly fitted or top-dose-only effect, or another doubt; inactive means no such curve, though single readings can be large or run the other way;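 further: the enzyme is Sfp with the accession as filed and its product quenches rhodamine fluorescence; potency means the concentration at half of the fitted maximal effect; 0% = enzyme reaction without inhibitor and -100% = no enzyme wells; top concentration of the series not given in the record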
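Step 1, compound plus 15 nM Sfp-PPTase, 15 min, room temperature. Step 2, add rhodamine-CoA (5 uM) and BHQ-2-YbbR (12.5 uM). Step 3, read 525/598 nm fluorescence at 0 and 30 min.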
gsp agonist: qHTS for Agonist of gsp, the Etiologic Mutation Responsible for Fibrous Dysplasia/McCune-Albright Syndrome: qHTS; gsp mutant cells, cAMP HTRF, 30 min; control for the full effect not named in the record; Potency, µM (top dose mostly 76.9 µM), inactives show top-dose activation (cAMP increase), hits mostly activators; 340,000 tested, 0.13% active; AID 624287, 2012; active = well fitted activation curve with a large enough effect; inconclusive = small, poorly fitted or top-dose-only effect, or another doubt; inactive = no such curve, though single readings can be large or run the other way; cell line not stated here;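 further: phosphodiesterase inhibitor Ro 20-1724 added with compounds to block cAMP breakdown; potency means the concentration at half of the fitted maximal effect; nearly all actives have a fitted effect of over 60% in size; about a fifth of the inactives were tested at one dose only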
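Cells in DMEM/10% FBS with G418 were pretreated with compounds in DMSO plus […] (300 uM stock) for 30 min at 37C. cAMP was measured by HTRF (cAMP-d2 plus anti-cAMP antibody-K) after 30 min at room temperature.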
gsp antag: qHTS for Antagonists of gsp, the Etiologic Mutation Responsible for Fibrous Dysplasia/McCune-Albright Syndrome: qHTS; 340,000 tested, 0.4% active; Potency, µM (series often up to 76.9 µM), for inactives: top-dose activity change, negative = inhibition, actives largely listed as inhibitors; gsp-mutant cells, cAMP HTRF, 30 min; control for the full effect not named in the record; active = falling curve of any shape with a large fitted effect; inconclusive = falling curve, mostly with a smaller effect; inactive = flat or rising curve; cell line not stated here;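 further: intracellular cAMP measured with PDE inhibitor Ro 20-1724 present during compound exposure; potency means the concentration at half of the fitted maximal effect; on the % scale 0 is the no-effect control and ±100 the full control effect; nearly all actives have a fitted effect of over 65% in size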
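Measurement of cellular cAMP by homogeneous time-resolved fluorescence following a 30 min compound exposure at 37C. The PDE inhibitor […] was present throughout; the assay buffer was DPBS with 0.05% BSA and 0.005% Tween 20.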
* marks the source's active call; other numbers are inactive results; ? = inconclusive; · = not tested or not shown; & = joins results of further samples; [ ] = dose if it differs, or a comment.

SMILES	ClpP mod	Menin MLL FP FL	TRPML1 blocker	TRPV1 PAM	Sfp PPTase inh	gsp agonist	gsp antag
Cc1cc(C)c(-c2csc(NC(=O)c3n[nH]c(=O)c4ccccc34)n2)c(C)c1	-16%	0.3	-5	-6	9%	16%	10%
CN(C(=O)COC(=O)COc1ccc(Cl)cc1)C1CCCCC1	-0.7%	-0.7	1	-13	18%	-16%	2%
Cc1ccc(C23CC4CC(CC(CN)(C4)C2)C3)cc1	-3.1%	-3.3	-5	-4	12%	-1%	9%
Cc1ccc(NC(=O)COC(=O)C2(CC(=O)NC(C)C)CCCC2)cc1C	1.5%	·	3	·	·	-10%	-13%
COc1ccc(/C=N/n2c(C3CCCCC3)n[nH]c2=S)c(OC)c1	2.4%	-2.9	2	-18	-19%	-28%	-20%
O=C(/C(=C/c1ccc(Cl)cc1)c1nc2ccccc2[nH]1)c1cccs1	-5.0%	2.9	32	-8	-1%	7%	-27%
Cc1cccc(N2CCN(C(=O)CCNC(=O)Cn3ccc4ccccc4c3=O)CC2)c1C	-14%	1.4	7	-9	3%	-23%	-14%
COC(=O)Nc1ccc(S(=O)(=O)NC2CCS(=O)(=O)C2)cc1 (stereo not given)	·	-2.1	-22	-2	4%	-2%[15.4 µM]	3%
COCCn1c(C)cc(/C=C2/NC(=O)N(Cc3ccc(C)cc3)C2=O)c1C	-17%	4.0	6	-24	2%	7%[15.4 µM]	1%
Cc1noc(C)c1COc1ccccc1C(=O)NNC(=O)c1ccccc1F	-0.3%	·	-22	-19	·	-15%	3%
O=C(CSC1=NC2(CCCCC2)N=C1c1ccccc1)Nc1ccc2c(c1)OCCO2	-5.9%	1.2	-16	-4	6%	1%	-15%
CCN(CC)C(=O)CC(c1ccc(N(C)C)cc1)c1c(OC)cc(OC)c2ccc(=O)oc12 (stereo not given)	-2.8%	5.4&3.9	29&10	-18	9%&10%	·	-3%
O=C(CNS(=O)(=O)c1ccc(Br)s1)NCc1ccccc1	·	-1.2	-21	14	23%	4%	0%
C(=NN1CCCCCC1)c1cccc2ccccc12	?	·	-16	·	·	-2%[15.4 µM]	2%
CCCCNS(=O)(=O)c1ccc(NC(=O)c2cccs2)cc1	·	-3.3	-4	-4	-5%	8%	6%
Cc1ccc(C)c(NC(=O)COC(=O)CSc2ccccc2)c1	-1.1%	·	-8	-9	·	19%	5%
COC(=O)[C@@]12CCCN1[C@H](c1ccc(-c3ccc(OC)cc3)c(OC)c1)[C@@H]1C(=O)N(C)C(=O)[C@@H]12	3.9%	·	10	27	·	0%	-9%
COc1ccc(NC(=O)N(Cc2cccnc2)Cc2ccccc2Cl)c(OC)c1	-0.8%	·	-13	·	·	4%	-16%
O=C(CSc1nnc(-c2cccnc2)o1)NNC(=O)c1ccc(Br)cc1	-1.0%	0.0	5	10	23%	-37%[inhibitor]	13%
CN(C)CC(=O)Nc1ccc2c(c1)[C@H]1C[C@H](CC(=O)NCc3ccc4c(c3)OCO4)O[C@H](CO)[C@H]1O2	1.1%	·	-10	·	·	-32%[inhibitor]	·
Cc1ccccc1-c1nnc(NC(=O)c2ccc(N3C(=O)CCC3=O)cc2)s1	0.3%	-0.4	-1	14	-4%	15%	3%
COc1ccc(C)cc1Nc1n[n+](-c2ccccc2)c(-c2c(Cl)cccc2Cl)s1	1.0%	0.3	5	-12	?	·	?
CC(C)CCC1(C)NC(=O)N(CC(=O)NCC(=O)Nc2ccc(F)c(F)c2F)C1=O (stereo not given)	1.1%	·	-6	·	·	4%	15%
CCN1C[C@@H]2[C@@H]3C(=O)N(C)C(=O)[C@@H]3[C@](C)(C1=O)N2C(=O)c1ccccc1	-1.5%	·	1	·	·	?	6%
Cn1c(N)c(C(=O)COC(=O)CSc2cccc3cccc(Cl)c23)c(=O)n(C)c1=O	·	-1.2	-11	9	12%	-17%[15.4 µM]	0%
CCc1ccc(CN2CCC(n3nccc3NC(=O)c3ccccc3OC)CC2)o1	2.8%	·	7	·	·	-132%[inhibitor]	·
COc1ccc(-c2ccc3c(N)c(C(=O)c4cccc(OC)c4)sc3n2)cc1	0.5%	?	1	-3	-14%	-18%	2%
Cc1cc(NC(=O)C2CC(=O)N(c3ccc(Cl)cc3)C2)no1 (stereo not given)	·	-1.3	-4	-6	19%	8%	-2%
COc1ccc(C(=O)Nc2ccc3oc(-c4cccc(F)c4)nc3c2)cc1OC	4.6%	0.6	-12	-7	-1%	?	?
CCOC(=O)c1c(NC(=O)c2ccccc2)sc2c1CCc1ccccc1-2	·	2.8	-13	-2	1.3µM*	-23%	-16%
CCn1c(SCC(=O)Nc2ccc(OC)cc2)nc2c(c1=O)SCC2	-4.0%	-1.6	10	-4	-8%	21%[15.4 µM]	-2%
Cc1cc(Nc2cccc(C)c2C)n2nc(C)nc2n1	-1.1%	-2.3	-17	-5	-14%	-22%	1%
O=C1NC(=S)N(C(=O)c2ccc(F)cc2)/C1=C/c1ccccc1	-6.4%	-1.2	-12	-5	?	7%	?
CN(CC1COc2ccccc2O1)C(=O)CCNS(=O)(=O)c1ccc(F)c(Cl)c1 (stereo not given)	3.1%	·	5	·	·	-28%	·
CC(C)(CC(=O)O)CC(=O)Nc1ccc(Oc2ccc(C(C)(C)C)cc2)nc1	-0.3%	0.2	4	?	13%	-55%[inhibitor]	-9%
Oc1ccc(C[C@H]2CNC(=S)N2CC2CCCN2C[C@H](Cc2ccc(O)cc2)N2C[C@H](Cc3ccccc3)N(CC3CCCCCC3)C2=S)cc1 (stereo not given in full)	-1.3%	·	4	·	·	·	0%
CC(C)c1ccc(NS(=O)(=O)c2cccc3cccnc23)cc1	0.9%	9.1	·	4	6%	?	-4%
O=C(NNC(=O)c1cccnc1)Nc1ccccc1	0.5%	-2.7	-4	10	11%	-28%	11%
Cc1c(CN2CCC(CO)(CCOc3ccccc3)CC2)c(=O)n(-c2ccccc2)n1C	·	1.8	-11	7	4%	19%[15.4 µM]	6%
COc1cccc(N2CCN(C(=O)CC(NC(=O)c3ccccc3)c3ccccc3)CC2)c1 (stereo not given)	-3.8%	·	29	5	·	18%[15.4 µM]	-9%

Ordered by length of the SMILES (rising): some entries from above
SMILES	ClpP mod	Menin MLL FP FL	TRPML1 blocker	TRPV1 PAM	Sfp PPTase inh	gsp agonist	gsp antag
Cc1cc(Nc2cccc(C)c2C)n2nc(C)nc2n1	-1.1%	-2.3	-17	-5	-14%	-22%	1%
Cc1ccccc1-c1nnc(NC(=O)c2ccc(N3C(=O)CCC3=O)cc2)s1	0.3%	-0.4	-1	14	-4%	15%	3%
CCN1C[C@@H]2[C@@H]3C(=O)N(C)C(=O)[C@@H]3[C@](C)(C1=O)N2C(=O)c1ccccc1	-1.5%	·	1	·	·	?	6%

(cont.)
SMILES	ClpP mod	Menin MLL FP FL	TRPML1 blocker	TRPV1 PAM	Sfp PPTase inh	gsp agonist	gsp antag
Cc1cc(C)c2cc(C#N)c(NCCCNC(=O)c3cccnc3)nc2c1	4.0%	·	-3	·	·	-34%	·
COC(=O)C1=C(C)NC2=C(C(=O)CCC2)C1c1cccs1 (stereo not given)	·	4.4	·	-11	4%	·	·
Cc1nc(-c2ccccc2)sc1-c1nnc(C2CC2)o1	?	-3.7	-9	·	-1%	2%[15.4 µM]	-10%
C/C(=N\Nc1nc(N)cc(Cl)n1)c1ccc(F)cc1	-1.6%	1.4	8	1	5%	-118%[inhibitor]	-4%
CCOC(=O)C1C(O)=CC(=O)CC1c1ccccc1 (stereo not given)	1.5%	·	-13	?	·	19%	-9%
CCCN=C1N/C(=C\c2ccco2)C(=O)N1c1ccccc1	-7.4%	9.1	-24	1	?	3%	-11%
Cc1ccc(-n2nc3c4c(cccc4c2=O)-c2ccccc2-3)cc1	?	4.5	38	5	-8%	7%	1%
CC(/C=N/n1c(-c2ccccc2)n[nH]c1=S)=C\c1ccco1	0.3%	6.1	1	-6	?	-48%	-15%
O=Cc1ccc(OCC(=O)Nc2ccccc2-c2ccccc2)cc1	-0.5%	0.4	22	-5	11%	11%[15.4 µM]	?
COc1cccc(N2CCN(C3CC(=O)N(c4ccc(Cl)c(Cl)c4)C3=O)CC2)c1 (stereo not given)	-0.3%	-0.3	-17	3	-8%	-20%	-11%
COc1ccc(CCC(=O)NCc2ccccc2Cl)cc1OC	0.6%	-2.3	-4	-8	7%	26%	12%
Cc1ccc(CN2C(=O)CC(Nc3ccc(N4CCOCC4)cc3)C2=O)cc1 (stereo not given)	1.4%	-3.9	-2	24	-8%	-28%	-8%
Cc1cccc(NC(=O)CSc2nc(C)c(CC(=O)c3ccc(Br)cc3)c(C)c2C#N)c1C	-0.8%	5.6	31	12	-1%	?	32%[activator]
O=C(N/N=C/c1ccco1)c1cc(Br)ccc1OCc1ccccc1	·	0.6	40	2	-5%	-17%[15.4 µM]	-1%
CC(C)(C)C(=O)NC(=S)Nc1ccccn1	·	1.4	3	-3	-13%	13%[15.4 µM]	9%
CC(=O)c1ccc(N2CCN(C(=O)c3ccc4c(=O)n(-c5ccccc5)c(=O)[nH]c4c3)CC2)cc1	-7.6%	2.0	24	18	-15%	5%	-1%
CCC(CC)C(=O)NCc1ccc(Cl)cc1	0.7%	-4.4	6	3	9%	-35%	-4%
